Screens (PubChem)
TRPV1 potentiator: HTS Assay for Compounds that Act as Potentiators of the Vanilloid Receptor 1. potentiation, % at 8.33 µM. Transient receptor potential cation channel subfamily V member 1 (Homo sapiens), Q8NER1. TRPV1-expressing cells, Fluo-8 calcium influx, capsaicin EC20 potentiation; host cell line not named in the record; control for the full effect not named in the record. 0.02% of 320,000 active; active means potentiation above 80%; inconclusive means 30% to 80%; inactive means below 30%; further: 0% is about no effect
Target sequence (Q8NER1 whole entry, looked up): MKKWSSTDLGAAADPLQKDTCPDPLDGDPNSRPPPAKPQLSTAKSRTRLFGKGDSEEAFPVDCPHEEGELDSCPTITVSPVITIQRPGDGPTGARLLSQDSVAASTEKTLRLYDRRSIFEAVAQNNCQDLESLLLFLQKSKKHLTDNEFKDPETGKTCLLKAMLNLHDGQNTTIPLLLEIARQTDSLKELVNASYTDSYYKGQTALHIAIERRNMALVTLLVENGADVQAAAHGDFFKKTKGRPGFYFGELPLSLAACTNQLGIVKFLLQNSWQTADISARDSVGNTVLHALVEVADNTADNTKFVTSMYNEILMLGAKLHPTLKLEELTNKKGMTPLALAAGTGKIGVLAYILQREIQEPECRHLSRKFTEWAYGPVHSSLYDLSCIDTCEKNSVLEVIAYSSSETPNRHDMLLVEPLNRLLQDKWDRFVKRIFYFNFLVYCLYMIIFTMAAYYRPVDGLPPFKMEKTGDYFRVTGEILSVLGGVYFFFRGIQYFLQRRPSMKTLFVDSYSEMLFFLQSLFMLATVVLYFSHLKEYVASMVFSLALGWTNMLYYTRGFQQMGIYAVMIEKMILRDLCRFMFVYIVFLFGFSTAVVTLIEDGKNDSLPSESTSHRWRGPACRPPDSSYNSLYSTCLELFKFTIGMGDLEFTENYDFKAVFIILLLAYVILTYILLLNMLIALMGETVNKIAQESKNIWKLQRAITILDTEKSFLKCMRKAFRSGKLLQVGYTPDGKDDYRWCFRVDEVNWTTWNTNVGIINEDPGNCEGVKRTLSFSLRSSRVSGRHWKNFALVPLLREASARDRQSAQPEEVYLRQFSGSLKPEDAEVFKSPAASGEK
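Fluo-8 calcium influx in TRPV1-expressing cells, kinetic read (ex 480/em 520 nm). Compound added and read 3 min for agonist activity, followed by capsaicin at EC20 final and 2 min further read for enhancement.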
Sfp inh: qHTS Assay for Inhibitors of Bacillus subtilis Sfp phosphopantetheinyl transferase (PPTase) | 4'-phosphopantetheinyl transferase ffp (Bacillus subtilis), Q9F4F7 | Potency, µM, for inactives: max response, negative = inhibition, usual class: inhibitors | Biochemical Sfp PPTase activity, qHTS | 3.5% of 310,000 active; active means well fitted inhibition curve with a large enough effect; inconclusive means small, poorly fitted or top-dose-only effect, or another doubt; inactive means no such curve, though single readings can be large or run the other way;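 further: the enzyme is Sfp with the accession as filed and its product quenches rhodamine fluorescence; potency means the concentration at half of the fitted maximal effect; 0% = enzyme reaction without inhibitor and -100% = no enzyme wells; top concentration of the series not given in the record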
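Compounds were incubated with enzyme (final 15 nM) for 15 min at room temperature before substrate addition started the reaction. Fluorescence at 525 nm excitation, 598 nm emission was recorded immediately and after 30 minutes.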
D2 PAM: Beta-Arrestin HTS for Positive Allosteric Modulators of the Human D2 Dopamine Receptor: Potentiators | D(2) dopamine receptor (Homo sapiens), P14416 | DiscoveRx D2 beta-arrestin cells, luminescence, 90 min; 100% = 57 uM dopamine signal | potentiation, % (concentration not given with the values) | 0.23% of 360,000 active | AID 624464, 2012; active = potentiation of 50% or more; inconclusive = 30% to 50%; inactive = 30% or less;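 further: compound concentration not given in the record; tested on top of an EC20 dose of dopamine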
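PathHunter D2 cells, attached overnight at 37 deg C, received compound in DMSO plus dopamine at EC20 (50 nM final) for 90 min at 37 deg C. Beta-arrestin recruitment was read as luminescence after 1 h with detection reagent at ambient temperature.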
PINK1 modulator: A Quantitative High throughput Screen to Identify Chemical Modulators of PINK1 Expression. Potency, µM (doses to about 76.6 µM), for the others: at the top dose activation (PINK1 increase), hits mostly activators. AID 624263, 2012. PINK1 immunofluorescence, high-content cytometry, 24 h. 0.2% of 410,000 active; active = well fitted activation curve with a large enough effect; inconclusive = small, poorly fitted or top-dose-only effect; inactive = flat fitted curve, though single readings scatter; cell line not stated here;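 further: potency means the concentration at half of the fitted maximal effect; % of control where 0% means no effect; nearly all actives have a fitted effect of over 65% in size; a mitochondrial uncoupler was the plate control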
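Measures PINK1 amount and localization on or inside mitochondria by immunofluorescence. Stable cells get compounds at 5 concentrations for 24 hours before fixation and staining; CCCP controls included.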
Six1-Eya2 inh: qHTS Assay for Inhibitors of the Six1/Eya2 Interaction; Homeobox protein SIX1 (Homo sapiens) + Protein phosphatase EYA2 (Homo sapiens), …; AlphaScreen GST-Six1/His-Eya2 binding, biochemical; hits give low values; control for the full effect not named in the record; activity change, % (concentration not given with the values); 0.56% of 360,000 active; in the data active = activity change below about -65%; inconclusive = about -30% to -65%; inactive = above about -30%; further: on the % scale 0 is the no-effect control and ±100 the full control effect
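Homogeneous AlphaScreen proximity assay pairing GST-Six1 with His-tagged Eya2 (added as 5X mix: 250 nM and 500 nM) in 50 mM Tris pH 8.0, 300 mM NaCl, 1 mM TCEP. Glutathione donor and nickel acceptor beads; 1 h, 37 °C, dark.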
D2 agonist: Beta-Arrestin HTS for Positive Allosteric Modulators of the Human D2 Dopamine Receptor: Agonists | 0.084% of 360,000 active | D(2) dopamine receptor (Homo sapiens), P14416 | activation, % (test concentration not listed) | DiscoveRx PathHunter D2 beta-arrestin, luminescence, 90 min; 100% = 57 uM dopamine signal | AID 624465, 2012; in the data active = activation above about 40%; inconclusive = about 15% to 40%; inactive = below about 15%; further: compound concentration not given in the record; the text of the record calls up to 30% inactive
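DiscoveRx PathHunter D2 beta-arrestin cells (2,100/well) attached overnight, then compound-stimulated 90 min at 37 C in HBSS/10 mM HEPES/0.1% Tween-20 buffer; beta-galactosidase complementation read by luminescence after 1 h at ambient temperature. Dopamine 57 uM final (EC100) as control.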
CtBP-E1A blk: qHTS Assay for Inhibitors of the CtBP/E1A Interaction. AlphaScreen GST-E1A/His-CtBP binding, 1536-well; hits give low values; control for the full effect not named in the record. activity change, % (concentration not given with the values). 0.49% of 340,000 active; in the data active means activity change below about -65%; inconclusive means about -30% to -65%; inactive means above about -30%; further: on the % scale 0 is the no-effect control and ±100 the full control effect
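In 5 uL wells, 23 nL compound meets equimolar GST-E1A and His-CtBP (5X stock 125 nM each) for 2 h, 37 °C. Beads (5X, 50 ug/mL) then 1 h, 37 °C, dark.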
Numbers without * were called inactive; ? = inconclusive; · = no result given; & = joins results of further samples; [ ] = remark or other dose.

SMILES | TRPV1 potentiator | Sfp inh | D2 PAM | PINK1 modulator | Six1-Eya2 inh | D2 agonist | CtBP-E1A blk
CCN(c1ccccc1)S(=O)(=O)c1ccc(C(=O)N2CCN(c3ccccc3)CC2)cc1 | · | · | -31.3 | -0.8% | -8.7 | 1.6 | -5.0
Cc1ccc(Cc2c(-c3ccccc3)nc3ccc(Cl)cn23)cc1 | · | · | · | 11.9% | -3.2 | -0.8 | 4.3
Cc1ccc(C(=O)Oc2cc(C)n(C)c(=O)c2)cc1 | -6.8 | 4.4% | 8.7 | 0.6% | -94.5* | -1.7 | -22.6
NC(=O)N1CC(O)CC1C(=O)Nc1ccc(Cl)c(Cl)c1 (stereo not drawn) | 2.0 | 18.8% | 27.1 | 3.5% | 1.7 | -1.0 | 10.7
OC1C2CCC(C2)C1CN1CCOCC1 (stereo not drawn) | · | · | -5.0 | -0.3% | 5.8 | -5.5 | 0.3
COC(=O)c1cc(OC)c(OC)cc1NC(=O)Cc1ccccc1[N+](=O)[O-] | -7.2 | 18.9% | -0.1 | 8.0%[38.3 µM] | 22.2 | -1.1 | 45.9
C/C(=N\Nc1nc(C)cc(=O)[nH]1)C1CC1 | 9.4 | 39.8µM* | -1.2 | 1.4% | -4.9 | -3.3 | ·
COc1ccc(-c2c(-c3cc(OC)cc(OC)c3)n(C)c3ccc(-c4cnc(N)nc4)cc23)cc1 | · | · | -4.0 | 3.6% | 3.2 | -4.2 | -1.2
COc1ccccc1CN1C[C@@H]2C[C@@H](c3ccccc3OC)N3CCC[C@@]23C1=O | 7.6 | 16.4% | -7.9 | -0.5% | 0.8 | -1.6 | 1.0
CCCCS(=O)(=O)N1CCCC(C(=O)Oc2ccccc2)C1 (stereo not drawn) | 27.8 | 7.8% | 10.9 | 0.8% | -2.5 | 1.0 | ·
CN(C)/C=N/c1sc2c(c1C#N)CCCCC2 | -17.1 | -2.8% | -2.8 | -2.0% | -9.5 | 1.3 | -17.3
O=C(NC1CC1)c1ccccc1NC(=O)c1ccccc1OC(F)F | · | · | -18.6 | 7.5% | -10.0 | -2.9 | 3.9
O=C(C1CC1)N1CCN(c2ccc([N+](=O)[O-])cc2-n2cccc2)CC1 | 14.5 | 2.5% | -0.8 | 5.2% | -15.7 | 3.8 | -22.4
CC(C)C(c1nnnn1CC1CCCO1)N1CCN(C2CCCC2)CC1 (stereo not drawn) | 12.4 | 19.8% | -24.5 | 0.6% | -1.0 | -5.5 | 0.1
c1ccc(CCc2nc(-c3ccccc3)no2)cc1 | -16.4 | -7.3% | -10.8 | -0.9% | 35.7 | -0.8 | 32.2
CCSc1nncn1/N=C/c1ccc(OC)c(OC)c1 | 2.1 | 19.1% | -1.0 | -0.6% | -21.3 | 0.5 | -8.3
CC(Cc1ccccc1)C(=O)NCc1ccccn1 (stereo not drawn) | 5.6 | 31.0%&6.1% | -11.3 | -0.8% | 4.0 | -0.9 | 7.1
CN(C)CCNCc1ccccc1OC1CCCC1 | 2.9 | 4.8% | -13.8 | -0.5%[38.3 µM] | 0.2 | -3.9 | 2.7
CC(=O)Cc1nsc(NC(=O)c2ccc(-c3ccccc3Cl)o2)n1 | 1.9 | 11.1% | -5.4 | 2.9% | -15.1 | -11.9 | 1.7
CC(C)C[C@H]1CN([C@@H](Cc2ccc(O)cc2)CN2CCC[C@H]2CN2C(=O)C(=O)NC[C@@H]2Cc2ccccc2)C(=O)C(=O)N1CC1CCCCCC1 | · | · | · | -0.5% | 2.4 | · | 0.0
COc1cccc(OC)c1C(=O)Nc1cccc(C(C)=O)c1 | -6.4 | 9.7% | 14.2 | -0.5% | 0.5 | 2.1 | -0.8
CCN(CC)C(=O)C(=O)N/N=C/c1cccc(Br)c1 | · | 1.9% | -26.1 | -0.4% | -0.4 | -6.6 | -0.5
Cc1cccc(NC(=O)CCC(=O)Nc2nnc(C(F)(F)F)s2)c1 | -0.3 | 22.5% | -7.6 | 1.7% | -3.6 | -4.7 | 4.5
CC12CCC(C(=O)N3CCN(C(c4ccccc4)c4ccccc4)CC3)(OC1=O)C2(C)C (stereo not drawn) | -2.4 | 8.7% | -12.3 | 0.4%[38.3 µM] | 0.3 | -3.7 | 1.9
Cc1ccc(-c2cc(NC=O)c3ncc(-c4cccc(C(=O)N(C)C)c4)n3c2)cc1 | · | · | 3.5 | 1.5% | -8.0 | -1.0 | -20.4
COc1ccc(C(=O)Nc2cccc(C(=O)O)c2)cc1S(=O)(=O)N1CCCC1 | 1.4 | 7.8% | 16.3 | 3.2% | 5.0 | -3.2 | 5.8
CCCCNC(=S)N1CCN(c2nc3ccccc3s2)CC1 | -15.0 | 2.5% | 4.4 | 1.2% | -0.2 | -0.7 | -2.6
CC(=O)c1c(C)[nH]c(C(=O)Nc2ccc(F)cc2F)c1C | 16.3 | 7.1% | -8.0 | 0.4% | -0.5 | -0.1 | 7.2
CSc1nsc(SC)c1C(=O)Nc1ccc(C)cc1 | -9.0 | 6.6% | -2.5 | 2.8% | 12.4 | -4.2 | -1.4
CCCCCn1c(Sc2ncccn2)nc2c1c(=O)[nH]c(=O)n2C | -4.4 | 19.8% | -4.5 | -1.6% | -6.2 | 2.1 | 1.3
Cc1nc(SCC#N)c2c(C)c(C)sc2n1 | 1.9 | 5.1% | 15.7 | -0.5% | 1.9 | 1.7 | 1.1
COc1cnn(C(C)(C)C)c(=O)c1Cl | 4.3 | 9.4% | -1.1 | 3.6%[38.3 µM] | 3.6 | 2.7 | 3.5
COc1ccc(N2CCN(C(CNC(=O)C(C)(C)C)c3cccnc3)CC2)cc1 (stereo not drawn) | 7.9 | 10.7% | 0.1 | 1.6% | 10.7 | -6.2 | ·
COC(=O)/C=C/C(=O)Nc1cccc(C(F)(F)F)c1 | -18.6 | -2.7% | 0.4 | ? | 2.6 | -0.2 | 4.1
CCOC(=O)CNC(=S)n1ncnc1N | -0.4 | ? | -1.6 | -0.9% | -17.0 | -5.9 | -12.0
C/C=C/c1ccc(OCC(=O)Nc2cc(OC)c(OC)c(OC)c2)c(OC)c1 | 2.2 | -15.2% | -6.7 | 2.2% | -11.1 | 2.1 | -15.4
CC1CCCc2sc3nc(N4CCN(CCO)CC4)n4ncnc4c3c21 (stereo not drawn) | 17.2 | -14.2% | -10.3 | -2.8% | -5.1 | 0.1 | -11.0
NNC(=O)c1ccc(COc2ccc3ccccc3c2)o1 | -14.4 | 16.8% | 2.4 | 0.1% | 17.2 | 2.2 | ·
CC(C#N)Sc1nc2ccccc2c(=O)n1-c1ccccc1 (stereo not drawn) | 8.9 | 10.2% | 6.2 | · | 3.7 | 1.3 | 6.6
CCCCOc1ccc(C(=O)N/C(=C\c2cccc([N+](=O)[O-])c2)C(=O)OCc2ccco2)cc1 | -2.2 | 6.5% | -7.4 | 5.5% | -6.3 | -0.3 | ·
CC(C)/C=N/Nc1nc2c(c(=O)n(C)c(=O)n2C)n1C | 5.0 | -22.0% | -4.4 | 0.8% | -16.5 | -2.6 | -19.1
CC(C)=C(NC(=O)c1ccccc1)C(=O)N1CCOCC1 | -4.3 | 18.5% | 5.3 | -0.9%[38.3 µM] | 4.4 | -2.1 | -4.7
CS(=O)(=O)N1CCC(C(=O)N2CCN(C(c3ccccc3)c3ccccc3)CC2)CC1 | -40.0 | 1.2% | -11.2 | -1.1% | 4.8 | 3.4 | ·
O=C(NC(=S)Nc1ccc(S(=O)(=O)Nc2nccs2)cc1)c1ccccc1F | 2.8 | -11.3% | -41.7 | -0.8% | -18.6 | -4.1 | 21.4
COc1ccc(-n2ccc(-c3nn(-c4cccc(C(F)(F)F)c4)ccc3=O)n2)cc1 | -8.2 | 21.2% | 1.2 | -0.5% | -9.0 | -1.4 | 0.5
Cc1cccc(-n2c(C)cc(/C=N/NC(=O)c3cccc([N+](=O)[O-])c3C)c2C)c1 | 12.7 | 21.4% | -13.1 | 3.5% | -19.3 | -0.9 | -11.2
COCCNc1nc2c(c(=O)n(C)c(=O)n2C)n1CCCc1ccccc1 | · | · | -2.2 | -0.7% | 3.7 | 5.0 | 2.3
O=C(O)c1cc(Cl)ccc1NC(=O)C1CCCO1 (stereo not drawn) | -5.9 | 16.7% | -15.5 | -5.2%[38.3 µM] | 9.0 | -3.4 | 5.3
CCN(C(=S)Nc1ccc(OC(F)F)cc1)C1CCCCC1 | 0.5 | 6.2% | -0.9 | 6.1% | -5.9 | -3.6 | 8.5

This is a random part of the collection; overall some 3.7% were active at least once.
